Assay outcomes as filed in PubChem BioAssay.
Env fusion inh – inhibitors of HIV-1 Env-driven cell-cell fusion, primary screen, HeLa-JRFL effector, CEM21 target cells, luciferase; 360,000 compounds, 1.1% hits; AID 651610, 2012; inhibition, % at 12.3 µM;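 active = mean replicate inhibition score of at least 50 and every replicate individually at or above 50; inconclusive = only one of the two criteria met; inactive = mean below 50 and not all replicates reaching 50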;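 note: 0% = plate neutral controls and 100% = maraviroc near 300 nM; one replicate is shown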
PABP polyA inh – PABP poly(A) RNA binding inhibitors, primary screen, biochemical, fluorescence polarization, uHTS | Polyadenylate-binding protein 1 (Homo sapiens), P11940 | inhibition, % at 35 µM | 290,000 compounds, 1% hits;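 active = 50% or more with normal probe brightness, or confirmed in later tests; inconclusive = above 50% with abnormal brightness, or retests that disagree; inactive = below 50% or failed in later tests; about a fifth of its hits are not listed in these tables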;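 note: calls also rest on retests at 20 µM and on dose response follow-up; controls were probe without protein and protein plus probe with vehicle; some compounds called inactive have numbers as strong as hits; many hits fall short of the cut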
Target sequence (P11940 whole entry, looked up): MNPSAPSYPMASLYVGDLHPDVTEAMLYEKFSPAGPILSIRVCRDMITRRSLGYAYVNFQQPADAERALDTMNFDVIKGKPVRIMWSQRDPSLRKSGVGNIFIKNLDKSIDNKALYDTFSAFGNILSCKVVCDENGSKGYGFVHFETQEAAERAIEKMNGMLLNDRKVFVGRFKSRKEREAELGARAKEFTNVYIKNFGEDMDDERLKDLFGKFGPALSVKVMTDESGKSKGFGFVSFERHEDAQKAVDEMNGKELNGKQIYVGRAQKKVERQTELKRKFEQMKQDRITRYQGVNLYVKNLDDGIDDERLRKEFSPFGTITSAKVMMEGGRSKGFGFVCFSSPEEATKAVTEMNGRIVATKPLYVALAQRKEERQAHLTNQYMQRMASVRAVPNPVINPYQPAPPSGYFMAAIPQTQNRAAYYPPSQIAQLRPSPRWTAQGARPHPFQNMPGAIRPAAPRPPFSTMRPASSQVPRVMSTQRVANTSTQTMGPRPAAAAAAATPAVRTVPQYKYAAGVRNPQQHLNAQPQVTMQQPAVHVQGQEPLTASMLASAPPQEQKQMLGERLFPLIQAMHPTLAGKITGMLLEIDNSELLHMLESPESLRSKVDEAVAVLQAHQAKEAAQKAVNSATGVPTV
MT1-MMP act inh – blockers of MT1-MMP proenzyme processing, primary screen, HT1080 RFP-PRO-GFP cells, GFP/RFP fluorescence; Matrix metalloproteinase-14 (Homo sapiens), P50281; GFP/RFP ratio fluorescence, overnight; percent of plate control window, DMSO zero; GFP/RFP ratio change, % at 20 µM; 360,000 compounds, 0.061% hits;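 active = GFP/RFP ratio change of at least 30% with cell ATP level not reduced by more than half and red fluorescence within 50% of control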; note: strong numbers were not always called active
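Assay system: HT1080 cells carrying an RFP-PRO-GFP reporter | Dosing: Single dose of 20 µM compound, 1% DMSO final | Incubation: Cells overnight before dosing, compound overnight, 37 °C, 5% CO2 | Evaluation: GFP/RFP fluorescence ratio | Control set: DMSO and RFP-L50D-GFP cell wells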
CSC inhib – cancer stem cell viability inhibitors, primary screen, luminescence; cancer stem cell-like cells viability; inhibition, % at 7.5 µM; 300,000 compounds, 1.1% hits; AID 2717, 2010;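 active = mean at 75% or more and at least half the replicates too; inconclusive = mean and replicates disagree; tested in HMLE shEcad cells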;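 note: 0% = median of negative and 100% = median of positive control wells; the first replicate is given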
Rce1 inh – yeast Rce1p protease inhibitors, primary screen, biochemical, fluorescence, cell-free homogeneous | yeast membranes, quenched prenylated peptide cleavage fluorescence | 290,000 compounds, 0.27% hits | CAAX prenyl protease 2 (Saccharomyces cerevisiae (strain ATCC 204508 / S288c)), Q03530 | calls only;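 active = fall in fluorescence gain of 50% or more versus controls, with final raw signal at or below 3038400; inconclusive = same 50% fall but final raw signal above 3038400; inactive = fall in fluorescence gain under 50%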;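 note: plate controls were neutral control wells for no effect and wells lacking membranes for full effect; tested at 10 µM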
Target sequence (Q03530 whole entry, looked up): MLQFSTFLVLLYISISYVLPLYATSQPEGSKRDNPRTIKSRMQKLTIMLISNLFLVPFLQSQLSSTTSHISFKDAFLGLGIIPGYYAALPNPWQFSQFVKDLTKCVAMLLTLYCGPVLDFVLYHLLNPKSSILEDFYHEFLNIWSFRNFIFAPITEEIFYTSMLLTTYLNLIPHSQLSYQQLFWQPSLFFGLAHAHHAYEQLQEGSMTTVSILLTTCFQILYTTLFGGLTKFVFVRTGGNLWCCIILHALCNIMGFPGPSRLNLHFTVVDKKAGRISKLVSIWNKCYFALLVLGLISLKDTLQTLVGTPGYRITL
UUG fidelity – modulators of yeast start codon fidelity, primary screen, whole organism, S. cerevisiae, single point, plate reader; activity score, % at 18.7 µM; 350,000 compounds, 0.13% hits; S. cerevisiae UUG-firefly luciferase reporter, luminescence/redox ratio; AID 602363, 2012;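 active = replicate mean at a twofold rise or more, about +100% in these data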;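 note: firefly luciferase made from a UUG start codon reports start codon fidelity; reporter light over untreated wells divided by growth signal over untreated wells; some hits fall short of that in this replicate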
eIF4H FP inh – human eIF4H binding inhibitors, primary screen, translation initiation inhibitor project, biochemical, uHTS, fluorescence polarization. Eukaryotic translation initiation factor 4H (Homo sapiens), Q15056. eIF4H fluorescence polarization binding assay. inhibition, % at 35 µM. 290,000 compounds, 0.94% hits;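 active = 50% or more with normal probe brightness, or confirmed in later tests; inconclusive = above 50% with abnormal brightness, or retests that disagree; inactive = below 50% or failed in later tests; about a fifth of its hits are not listed in these tables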;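 note: calls also rest on retests at 20 µM and on dose response follow-up; 0% = protein and probe with vehicle and 100% = probe without protein; strong numbers were not always called active; many hits fall short of the cut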
eIF4H FP inh retest – recorded beside eIF4H FP inh, whose call it bears; inhibition, %; compound at 20 µM; confirmation average;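 mean of two retest wells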
PABP polyA inh retest – recorded beside PABP polyA inh, whose call it bears; inhibition, %; compound at 20 µM; confirmation repeats;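 mean of two retest wells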
MT1-MMP act inh RFP – recorded beside MT1-MMP act inh, whose call it bears; RFP signal change, %; measured here: RFP expression control read;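 0 = vehicle wells; hits needed this value within 50% of zero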
The depositor's hits bear a star; i = inactive; u = inconclusive; x = not tested or not shown; & = joins results of further samples; [ ] = dose if it differs, or a comment.

SMILES	Env fusion inh	PABP polyA inh	MT1-MMP act inh	MT1-MMP act inh RFP	CSC inhib	Rce1 inh	UUG fidelity	eIF4H FP inh	others
CCn1c2ccccc2c2cc(NC(=O)CN(C)CC(=O)Nc3ccc(N4CCOCC4)cc3)ccc21	37	-3	-2	-5	80*	i	x	-5
O=C(C1COc2ccccc2O1)N1CCN(S(=O)(=O)c2cc(F)ccc2F)CC1 (stereo unspecified)	6	x	-4	-1	-2	x	-15	x
O=S(=O)(NCc1cn2ccccc2n1)c1cc(F)ccc1F	x	59	-9	-2	x	i	-16	-4	eIF4H FP inh retest=0;PABP polyA inh retest=-2
CC(=O)N/N=C/c1c(C)[nH]n(-c2ccccc2)c1=O	-2	1	1	6	0	x	x	17
CCOC(=O)c1cnn(-c2nc(OCC)cc(OCC)n2)c1C	10	-1	-5	0	-2	i	-18	4
CCCC(=O)N(CCN1CCOCC1)c1nc2cc(C)c(C)cc2s1	-25	10	-2	3	37	i	-13	-3
CC1=NNC(=O)C1Cc1ccccc1C (stereo unspecified)	0	-7	0	1	x	i	-18	6
Cc1ccc(C(=O)O)cc1NC(=S)NC(=O)Cc1ccccc1	-24	2	9	-3	-4	i	-7	-4
c1cncc(CSc2nnc3ccc(-c4ccco4)nn23)c1	2	-16	-3	-1	-10	i	-10	1
COCCCn1c(C(=O)N2CC(C)OC(C)C2)cc2c(=O)n3ccccc3nc21 (stereo unspecified)	-7	-3	0	5	-17	i	6	-5
CC1Cc2ccccc2N1C(=O)CSc1nnc(-c2ccc(S(=O)(=O)N3CCCC3)cc2)o1 (stereo unspecified)	-22	0	-2	-4	8	i	-11	-16
Cc1ccc(OC(=O)c2ccc3snnc3c2)cc1	x	-8	4	2	-6	i	-25	-5
Cc1ccccc1C(=O)NC1CCN(CC(=O)NC2CCCCC2)CC1	2	6	0	1	-9	i	-12	-7
CS(=O)(=O)N1CCN=C1SCc1ccccc1	-5	2	0	0	11	i	-10	-9
Cc1ccc(N2C(N)=C(C#N)C(c3ccsc3)C3=C2CC(C)(C)CC3=O)cc1 (stereo unspecified)	x	6	-6	-1	-11	i	-8	4
COC(=O)c1c(-c2cccs2)csc1NC(=O)CN1CCOCC1	x	-1	-3	-12	-3	i	5	-5
Cc1ccccc1NS(=O)(=O)c1ccc(C(=O)NNC(=O)c2ccccc2O)cc1	9	x	3	-3	73	i	-6	x
COc1ccc(N2CCN(S(=O)(=O)c3ccc4c(c3)N(C(C)=O)CCO4)CC2)cc1	4	22	2	-9	-11	i	4	29
COCc1[nH]c(=S)[nH]c(=O)c1C	2	-4	0	3	-23	i	-11	-8
N#CC1(NC(=O)Cn2cc(C(F)(F)F)cc(Cl)c2=O)CCCCC1	2	-8	5	6	2	x	-8	4
Cc1ccccc1NC(=O)Cc1nnc(NC(=O)Nc2ccccc2F)s1	-3	-2	1	0	15	i	-20	4
CCc1cccc(NC(=O)C2CCCN(S(=O)(=O)c3cccnc3)C2)c1 (stereo unspecified)	4	4	1	-3	-4	i	0	-4
CC(C)(C)C(=O)Nc1cc(NC(=O)C(C)(C)C)cc(C(=O)Nc2c[nH]c(=O)[nH]c2=O)c1	7	x	-3	0	-2	i	4	x
COc1cc(C(=O)NCc2ccc3[nH]c(C)cc3c2)cc(OC)c1OC	6	8	9	13	-8	i	x	-2
CCNC(=O)Oc1ccc[nH]c1=O	-6	24	1	0	3	i	-8	16
Cc1cc(Nc2ccccc2)nc(NCc2ccccc2)n1	26	10	-1	-17	34	i	x	8
COCCNc1ccc(N2C(=O)C3CCCCC3C2=O)cc1[N+](=O)[O-] (stereo unspecified)	8	6	3	0	-4	i	x	2
O=C(CC(=O)Nc1ccc(Cl)cc1)N/N=C\c1cccc(F)c1	-2	2	3	2	x	i	27	0
COC(=O)N/N=C\c1ccccc1OC/C=C/c1ccccc1	-53	-6	-2	-4	40	i	2	12
O=C(O)CCC(=O)Nc1sc2c(c1C(=O)NCc1ccccc1)CCCC2	11	-5	7	4	0	i	-6	-4
COc1ccccc1S(=O)(=O)Cc1ccc(C(=O)NCCN2CCCCCC2)o1	-8	-2	0	6	-11	i	19	-2
CCCS(=O)(=O)c1ccc(COC(=O)Cc2ccc([N+](=O)[O-])cc2)cc1	-2	11	-2	-3	0	i	-6	-2
O=C(O)c1ccc(/C=N/Nc2nc3ccccc3[nH]2)cc1	-47	3	-1	0	13	i	-17	4
Cc1cc(C)cc(N(C(=O)c2csnn2)C(C(=O)NC(C)(C)C)c2ccncc2)c1 (stereo unspecified)	20	2	0	0	-12	i	x	2
CC(NC(=O)CN(C)CC(=O)Nc1ccc(Cl)c(C(F)(F)F)c1)c1ccccc1 (stereo unspecified)	103*	x	9	-6	18	x	-16	x
O=C(c1ccc(-n2cccn2)cc1)N1CCc2ccccc2C1	-10	-1	1	-3	-8	i	2	-1
Cc1ccc(S(=O)(=O)NC(C)(C)CSc2ccccn2)cc1	-1	-6	3	1	-2	i	10	-16
COc1ccc(C)cc1NC(=O)CCCN1C(=O)CCC1=O	x	-9	-4	0	-16	i	-18	5
CC1CN(S(=O)(=O)c2csc(C(=O)Nc3ccccc3)c2)CC(C)O1 (stereo unspecified)	2	13	-5	-23	-6	i	-16	-8
COC(=O)c1c(-c2ccccc2OC)sc2ccccc12	-5	x	0	-6	64	x	7	x
Cc1ccn(C(C)CC(=O)Nc2ccc(-c3ccno3)cc2)n1 (stereo unspecified)	2	4	-7	-2	3	i	-22	-9
COc1ccccc1CNC(=O)C/C(C)=N/NC(=O)Cc1ccc(Cl)cc1	3	-4	3	4	-9	i	-17	-4
CC(=O)C1=C(C)Nc2ncnn2C1c1ccccc1OCc1ccccc1 (stereo unspecified)	x	0	3	1	14	i	-7	4
COc1ccc2c(c1)CCCN2C(N)=O	x	-1	-3	-6	-9	i	-5	-5
CCOC(=O)C1=C(O)C(=O)N(Cc2cccnc2)C1c1ccc(C)cc1 (stereo unspecified)	-2	-1	0	0	x	i	x	0

Quoted at random: two entries already listed, in no set order.
SMILES	Env fusion inh	PABP polyA inh	MT1-MMP act inh	MT1-MMP act inh RFP	CSC inhib	Rce1 inh	UUG fidelity	eIF4H FP inh	others
CCCS(=O)(=O)c1ccc(COC(=O)Cc2ccc([N+](=O)[O-])cc2)cc1	-2	11	-2	-3	0	i	-6	-2
COc1ccc2c(c1)CCCN2C(N)=O	x	-1	-3	-6	-9	i	-5	-5

Returning to the listing; the 2 compounds before the break are reprinted first.
SMILES	Env fusion inh	PABP polyA inh	MT1-MMP act inh	MT1-MMP act inh RFP	CSC inhib	Rce1 inh	UUG fidelity	eIF4H FP inh	others
COc1ccc2c(c1)CCCN2C(N)=O	x	-1	-3	-6	-9	i	-5	-5
CCOC(=O)C1=C(O)C(=O)N(Cc2cccnc2)C1c1ccc(C)cc1 (stereo unspecified)	-2	-1	0	0	x	i	x	0
COc1ccc(CCC(=O)NC2=NCCS2)cc1OC	-83	-2	-6	-1	-9	x	-18	-11
Cc1ccc(C)c(N2CC(O)(c3cccs3)[N+]3=C2CCCC3)c1 (stereo unspecified)	2	8	1	1	-7	i	x	-10
CC1=CCC2C(=O)N(c3cccc(C(=O)NC(C)c4ccccc4)c3)C(=O)C2C1 (stereo unspecified)	4	-4	4	1	-3	i	7	26
Cc1cc(C(=O)N/N=C/c2cn[nH]c2-c2ccccc2)cs1	10	-6	0	2	-16	i	x	3
c1ccc(-n2cnnc2SCc2cn3ccsc3n2)cc1	-24	-6	-6	-2	-11	i	-19	-3
COC(=O)C[C@H]1c2cc(C(F)(F)F)ccc2S(=O)(=O)N1c1ccc(N(C)C)cc1	-20	x	4	2	-6	i	-16	x
COc1ccc(NC(=O)Nc2ccc3c(c2)C(=O)N([C@@H](C)CO)C[C@@H](C)[C@@H](CN(C)S(=O)(=O)c2cccs2)O3)cc1	5[16.7 µM]	x	-4	-3	-1	x	-1&2	x
O=C(CCN1C(=O)c2ccccc2C1=O)NNC(=O)c1ccc(Cl)cc1Cl	x	10	3	4	1	i	x	9
COc1ccc(SCCN2CC[C@@H](C)CCC2=O)cc1	-71	x	-2	-3	-8	x	-14	x
CCCn1c(=O)c2ccccc2n2c(SCC(=O)N3CCc4ccccc4C3)nnc12	x	-4	-1	2	-9	i	-21	9
COc1ccc(Cl)cc1NC(=O)NCc1ccco1	10	-8	1	7	-16	i	x	-8
Cc1cccc(OCCn2c(-c3ccco3)nc3ccccc32)c1	-108	0	-10	-5	10	i	-22	-7
Cc1ccc(C)c(NC(=S)N/N=C2\CCc3ccccc32)c1	7	0	2	-6	61	i	-11	18
Cc1c(N=C2Nc3cccc4cccc2c34)c(=O)n(-c2ccccc2)n1C	u	19	-24&-38	2&-1	x	i	-4&-19	0
CCOc1cc(C(C#N)N2CCOCC2)ccc1OC (stereo unspecified)	x	-10	-1	3	-5	i	x	-7
O=C(CSc1nnc(-c2ccco2)n1CC1CCCO1)NC1CCCC1 (stereo unspecified)	-40	20	-2	-1	x	i	-5	-20
Cc1ccc(NC(=O)Cn2cnc3ccccc32)cc1C	4	-2	2	-1	-6	i	x	6
Cc1noc(C)c1-c1nc(CS(=O)(=O)c2ccccc2)no1	-127	4	0	3	-5	x	x	-1
C=C(C)CSc1ncc(-c2cccc(C(F)(F)F)c2)cn1	-19	2	2	-1	7	i	-15	6
O/N=C/CCn1c(=S)sc2ccccc21	-128	-2	7	0	-6	i	-12	8
O=C(COC(=O)c1ccc2ccccc2n1)Nc1cccc(S(=O)(=O)NC2=NCCCCC2)c1	-1	2	-5	2	-9	i	x	45
COc1ccccc1OCCC(=O)OCC(=O)Nc1cc(S(=O)(=O)N(C)C)ccc1Cl	-30	-12	2	4	8	i	11	1
O=C(CN(C1CCCCC1)S(=O)(=O)c1ccccc1)NCc1ccco1	29	-8	-1	-6	10	x	-1	4
COc1ccc(CN(C)CC(=O)N2CCc3ccccc3C2)cc1	-7	4	0	3	-6	i	0	-2
Cc1cc(-c2n[nH]c(=S)n2/N=C/C(Br)=C/c2ccccc2)n[nH]1	-291	16	0	-7	83*	i	x	2
O=C(NC1CCCCC1)c1ccc(COCC(F)(F)F)o1	x	23	-18	-12	x	i	-7	2
O=C(NC1=NCCS1)c1nc(-c2ccccc2)n(-c2ccccc2)n1	x	-5	1	4	-15	i	-11	1
O=C1C(=O)N(Cc2ccco2)C(c2cccs2)/C1=C(\O)c1cccc([N+](=O)[O-])c1 (stereo unspecified)	-1	-3	1	2	-12	i	-18	2
CCN(CC)C(=O)Cn1c(=O)n(-c2ccccc2)c(=O)n1CC(=O)N(CC)CC	x	-6	-1	2	-11	i	x	-2
COC(=O)[C@@]1(Cc2ccccc2)[C@H]2C(=O)N(C)C(=O)[C@H]2[C@H]2CN=C(SCc3ccc(C)cc3)N21	-5	x	-1	2	x	x	-5	x
